ClpP mod: qHTS Assay for Activators of ClpP; ATP-dependent Clp protease proteolytic subunit (Bacillus subtilis (strain 168)), P80244; AID 651965, 2013; purified B. subtilis ClpP, FRET peptide cleavage, 20 min; 340,000 tested, 1.9% active; Potency, µM (highest dose often 57.5 µM), without a hit: at the highest dose activity change, negative = active; active = well fitted falling curve with a large enough effect; inconclusive = small, poorly fitted or top-dose-only effect; inactive = no such curve, though single readings can be large or run the other way; also: potency is read from the fitted curve at half-maximal effect; the source files actives as falling curves though it sought activators and does not explain the sign; nearly all actives have a fitted effect of over 65% in size; many hits overshoot -100%
Target sequence (P80244 whole entry, looked up): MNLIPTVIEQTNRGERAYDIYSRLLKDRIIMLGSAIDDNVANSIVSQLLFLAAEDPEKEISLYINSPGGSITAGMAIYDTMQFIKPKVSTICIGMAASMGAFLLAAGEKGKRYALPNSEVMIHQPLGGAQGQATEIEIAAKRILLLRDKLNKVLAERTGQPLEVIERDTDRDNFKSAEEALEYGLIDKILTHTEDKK
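Buffer: 100 mM Tris/HCl pH8, 100 mM KCl, 0.05% low protease BSA, 2.5% glycerol, 0.01% Tween-20. ClpP 10 microg/mL final; 20 min RT; delta FRET normalized to ADEP and DMSO controls.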
TRPML1 ag: human mucolipin-1 channel agonism; AID 624414; TRPML1-expressing cells, Ca2+ dye fluorescence, FDSS; host cell line not named in the record; reference of the full effect not given here; 410,000 tested, 0.12% active; Q9GZU1; activation, % (test concentration not listed); in the data active = activation above about 50%; inconclusive = about 30% to 50%; inactive = below about 30%; also: 0% is about no effect; the text of the record puts the active cut at 80%
Target sequence (Q9GZU1 whole entry, looked up): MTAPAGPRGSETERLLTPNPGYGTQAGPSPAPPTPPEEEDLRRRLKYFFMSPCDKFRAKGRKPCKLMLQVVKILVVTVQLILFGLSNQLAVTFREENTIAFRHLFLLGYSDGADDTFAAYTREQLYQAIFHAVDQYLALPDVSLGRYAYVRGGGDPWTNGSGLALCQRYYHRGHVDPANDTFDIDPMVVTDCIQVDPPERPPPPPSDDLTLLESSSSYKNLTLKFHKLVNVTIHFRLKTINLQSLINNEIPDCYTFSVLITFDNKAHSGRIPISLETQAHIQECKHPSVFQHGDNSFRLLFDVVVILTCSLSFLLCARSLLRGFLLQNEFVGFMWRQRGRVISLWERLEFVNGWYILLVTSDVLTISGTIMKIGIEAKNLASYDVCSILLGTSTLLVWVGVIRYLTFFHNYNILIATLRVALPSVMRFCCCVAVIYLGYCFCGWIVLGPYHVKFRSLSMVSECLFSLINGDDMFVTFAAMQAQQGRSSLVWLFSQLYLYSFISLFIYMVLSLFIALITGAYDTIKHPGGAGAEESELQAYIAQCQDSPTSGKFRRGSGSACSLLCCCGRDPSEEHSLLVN
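Cells: TRPML1-DL, 1X Tet inducer, ~16 h at 37 degrees C/5% CO2. Dye: ABD Ca8 no-wash + quencher, 45-90 min RT. Read: 10 s baseline, compound add, 110 s agonist phase; 54-4 EC80 (4uM final), 110 s antagonist phase.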
TRPML1 blocker: blocks the human TRPML1 channel. activity change, negative = inhibition, % (test concentration not listed). AID 624415. Q9GZU1. 390,000 tested, 0.02% active. TRPML1-inducible cells, Ca2+ dye fluorescence, FDSS; active compounds read low; inhibition of EC80 agonist-evoked calcium signal; in the data active means activity change below about -50%; inconclusive means about -30% to -50%; inactive means above about -30%;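 also: stimulus is agonist 54-4 at its EC80 concentration; % is scaled to controls: 0 for no effect and ±100 for the full control effect; compound concentration not given in the record; the text of the record puts the active cut at -80%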
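Calcium fluorescence in TRPML1-DL cells induced overnight with Tet: a 110 s read after compound pin addition, then a 110 s antagonist read after challenge with 54-4 at 4 uM final (EC80).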
gsp antagonist: antagonizes gsp, the McCune-Albright syndrome mutation; gsp-mutant cells, cAMP HTRF, 30 min; control for the full effect not named in the record; Potency, µM (top dose mostly 76.9 µM), inactives show top-dose activity change, negative = inhibition, actives largely listed as inhibitors; 340,000 tested, 0.4% active; AID 624288; active = falling curve of any shape with a large fitted effect; inconclusive = falling curve, mostly with a smaller effect; inactive = flat or rising curve; cell line not stated here;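 also: intracellular cAMP measured with PDE inhibitor Ro 20-1724 present during compound exposure; potency is read from the fitted curve at half-maximal effect; % is scaled to controls: 0 for no effect and ±100 for the full control effect; nearly all actives have a fitted effect of over 65% in size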
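HTRF cAMP read-out (cAMP-d2 plus anti-cAMP antibody-K in lysis buffer, 30 min RT). Before lysis, cells are exposed to compounds with […] for 30 min at 37C in DPBS containing Ca/Mg, BSA and Tween 20.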
gsp agonist: gsp mutant agonism. AID 624287. Potency, µM (highest dose often 76.9 µM), inactives show at the top dose activation (cAMP increase), usual class: activators. 340,000 tested, 0.13% active. gsp mutant cells, cAMP HTRF, 30 min; control for the full effect not named in the record; active = well fitted activation curve with a large enough effect; inconclusive = small, poorly fitted or top-dose-only effect, or another doubt; inactive = no such curve, though single readings can be large or run the other way; cell line not stated here;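 also: phosphodiesterase inhibitor Ro 20-1724 added with compounds to block cAMP breakdown; potency is read from the fitted curve at half-maximal effect; nearly all actives have a fitted effect of over 60% in size; about a fifth of the inactives were tested at one dose only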
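Cells stably selected in G418 were plated at 2000/well, grown 16-24 hr, then given compounds in DMSO with the PDE inhibitor […] (300 uM solution added) for 30 min at 37C; cAMP was read by HTRF.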
Menin MLL FP FL: menin-MLL binding inhibition, fluorescein peptide | Fluorescence polarization, fluorescein-MLL peptide displacement from menin | FP activity change, % at 61.4 µM | 290,000 tested, under 10 active; inconclusive = falling polarisation curve, or a change in total fluorescence; inactive = total fluorescence flat and polarisation flat or rising; no compound was filed as active; the % refers to the polarisation; negative = inhibition;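 also: % of control where 0% means no effect; inhibitors lower the polarisation; unlabelled MLL peptide was the positive control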
* marks the source's active call; other numbers are inactive results; u = inconclusive; x = no result given; & = joins results of further samples; ! = repeats disagree; [ ] = dose if it differs, or a comment.

SMILES,ClpP mod,TRPML1 ag,TRPML1 blocker,gsp antagonist,gsp agonist,Menin MLL FP FL
CCOc1ccc(S(=O)(=O)Oc2ccc3ccccc3c2)cc1,1.0%,0.3,0,-13%,3%,3.2
CC(=O)O[C@H]1C[C@@]2(C)[C@@H](C[C@@H](O)[C@H]3[C@@]4(C)CC[C@@H](O)[C@@H](C)C4CC[C@@]32C)/C1=C(\CCC=C(C)C)C(=O)O (stereo partly drawn),-0.2%,-0.6,8,-1%,x,-5.2
O=C(CSc1nnc(NCc2ccccc2)s1)c1ccco1,-1.6%,0.5,4,4%,5%,4.6
CCN(CC)CCCNC(=O)CCC(=O)NNc1nc2ccccc2c2nc(C)nn12,-4.4%&0.6%,-0.3&-0.4,-4&1,0%,20%,-2.9
Cc1cccc(OCC(=O)NNC(=O)CCCCC(=O)NNC(=O)COc2cccc(C)c2)c1,-0.2%,-0.4,23,13%,-21%,x
Cc1ccccc1-c1nc(CS(=O)CC(=O)NCc2ccccn2)c(C)o1 (stereo not drawn),x,-0.5,-6,7%,10%,-2.7
C/C(N)=C(/C#N)C(=O)COC(=O)c1cc2c(s1)CCC(C)C2 (stereo not drawn),x,-0.8,-3,-30%,-5%[15.4 µM],-0.7
O=C1NC(=O)c2c(Br)c(Br)c(Br)c(Br)c21,x,2.1,8,-4%,-41%,x
Cc1ccc(C)c(N2CCN(C(=O)c3ccc(CS(=O)Cc4ccc(Cl)cc4)o3)CC2)c1 (stereo not drawn),-3.8%,0.6,13,1%,-98%[inhibitor],-8.1
CC(C)Oc1ccc(C(=O)Nc2nnc(SCC(=O)N3CCOCC3)s2)cc1,-0.1%,-0.5,0,-3%,-14%,0.4
CC(C)C(=O)N[C@H]1CCC2C3CC=C4C[C@@H](O)CC[C@]4(C)C3CC[C@@]21C (stereo partly drawn),x,0.9,23,1%,-35%[inhibitor],x
CN1CCC(N(C)S(=O)(=O)c2ccc(Cl)cc2)CC1,0.8%,-0.1,-8,10%,3%,-1.3

(continued)
SMILES,ClpP mod,TRPML1 ag,TRPML1 blocker,gsp antagonist,gsp agonist,Menin MLL FP FL
CCOC(=O)C1CCCN(C(=O)c2ccccc2NC(=O)c2nsc3ccccc23)C1 (stereo not drawn),-1.0%,1.1,-13,x,x,x
COc1cc2ccccc2cc1C(=O)Nc1ccccc1N1CCCC1,-29%,-0.7,-14,u,u,x
c1cc2c(nn1)CCc1nonc1-2,0.5%,0.0,11,8%,22%,2.6
FC(F)(F)c1cnc(NNC(=S)Nc2ccccc2Cl)c(Cl)c1,-3.2%,-0.5,18,-5%,-18%[15.4 µM],3.3
O=C(CNC(=O)c1ccccc1Cl)Nc1ccc(F)cc1,1.4%,0.6,-9,1%,-18%,0.7
COC(=O)c1cc(NC(=O)c2cccc(C(F)(F)F)c2)c(=O)oc1C,x,0.0,8,-4%,-19%[15.4 µM],0.9
Cc1ccc(C(=O)O)cc1NC(=S)NC(=O)C(c1ccccc1)c1ccccc1,0.2%,2.9,50,u,3%,-1.5
CCCCn1c(N)c(N(Cc2ccccc2OC)C(=O)CN2C(=O)NC3(CCCC3)C2=O)c(=O)[nH]c1=O,-7.6%,-0.5,5,8%,8%,x
N#Cc1nc(-c2ccc(OCc3ccccc3)cc2)oc1N1CCC(C(N)=O)CC1,3.5µM*!,-0.7&-0.9,4,-8%,10%,-0.3
O=C(COc1ccccc1)NNC(=O)c1cc2ccccc2oc1=O,-15%,2.9,20,2%,-29%,1.4
O=C(OCc1cn([C@@H]2CN(C(=O)C3CCCCC3)[C@@H](c3ccc(Cl)cc3)C[C@H]2O)nn1)c1ccccc1,0.3%,0.4,6,x,-35%[inhibitor],x
COc1ccccc1NC(=O)CSc1nccn1Cc1ccc(F)cc1,-10%,1.3,-14,-4%,16%,x

The list goes on.
SMILES,ClpP mod,TRPML1 ag,TRPML1 blocker,gsp antagonist,gsp agonist,Menin MLL FP FL
Cc1ccc(S(=O)(=O)NCCCCCC(=O)NCCc2ccccc2)cc1,1.7%,-0.3,-2,-2%,-2%,-4.7
O=C(Nc1ccc(S(=O)(=O)Nc2nccs2)cc1)c1cccc(S(=O)(=O)N2CCOCC2)c1,-0.2%,-0.1,-8,-2%,u,1.8
CC(C)(C)C(=O)Nc1cccc(C(=O)Nc2cc(C(=O)O)cc(C(=O)O)c2)c1,0.9%,-0.3,-2,1%,5%,0.7
CCn1c(C)cc(=O)cc1-c1ccc(Cl)cc1,0.8%,0.6,19,-8%,20%,-8.4
CN1C(=O)Cc2cc(S(=O)(=O)CCC(=O)N3CCN(c4ccccc4F)CC3)ccc21,-2.8%,1.1,-3,x,x,x
CCN(CC(=O)Nc1c(F)cccc1F)C(=O)CCNC(=O)c1ccco1,x,0.0,19,3%,-8%[15.4 µM],x
O=C(COC(=O)c1ccncc1)Nc1cccc(Cl)c1,-1.3%,-0.3,0,-6%,u,1.2
Nc1ccccc1-c1nc2ccccc2c(=O)o1,x,-0.7,3,-7%,-25%,-7.8
COc1ccccc1NC(=O)/C(C#N)=C/c1ccc(OCCN2CCOCC2)c(OC)c1,-2.9%,0.4,2,1%,-8%,x
CCO[C@H]1OC(C(N)=O)=C[C@@H](C2CC2)[C@@H]1CCCO,0.5%,-0.1,27,6%,0%,x
O=C(c1ccc([N+](=O)[O-])cc1)N(Cc1ccco1)c1ccccn1,-1.4%,-1.0,-9,x,x,x
Cc1ccc(NC(=O)c2ccc(Br)o2)c([N+](=O)[O-])c1,x,-0.5,4,-4%,-46%[inhibitor],x

Later entries:
SMILES,ClpP mod,TRPML1 ag,TRPML1 blocker,gsp antagonist,gsp agonist,Menin MLL FP FL
Cc1[nH]c(=O)[nH]c(=O)c1S(=O)(=O)N1CCCC(C(=O)NCCc2ccccc2)C1 (stereo not drawn),-2.0%,-0.5,5,-2%,-28%,4.0
C1N2CN3CN1CN(C2)C3,-2.2%,0.1,0,-3%,x,0.6
CCOC(=O)c1c(C)[nH]c(C(=O)OCC(=O)N2CCN(S(=O)(=O)c3ccccc3)CC2)c1C,-2.0%,1.1,1,-9%,0%,4.3
COCCCn1c(C)nnc1SCC(=O)NNC(=O)COc1ccc(Cl)cc1,x,-0.7,2,15%,2%,-3.6
CC(c1ccccc1)n1c(S(=O)(=O)O)nc2ccccc21 (stereo not drawn),-4.8%,0.7,-9,7%,-2%,-4.9
O=C(COc1ccc(S(=O)(=O)NC2CCCCC2)cc1)NC1CC1,-2.3%,-0.2,13,3%,5%,x
Cc1cccc(NC(=O)CSc2nc(=O)n(Cc3cccnc3)c3c2CCC3)c1C,-11%,0.0,-7,x,x,x
CC(=O)Nc1ccc(NC(=O)CN2C(=O)COc3ccc(S(=O)(=O)N4CCOCC4)cc32)cc1,-1.7%,-0.6,5,13%,u,x
Cc1cc(C(=O)N/N=C/c2ccc3c(c2)OCO3)c2ccccc2n1,-0.4%,4.1,34,23%,13%,4.0
Clc1ccccc1-c1nc(-c2cccnc2)no1,1.3%,1.2,1,3%,-1%,0.9
CC1=C(C(=O)Nc2ccc(C)cc2C)C(c2ccc(Cl)cc2)n2nc(C(=O)OC(C)C)nc2N1 (stereo not drawn),-0.8%&0.6%,-0.2&-0.4,-17&2,14%,-22%,-3.1
CCCN1CCC(N(CCc2ccccc2)Cc2ccccc2)CC1,2.8%,-0.8,23,17%,-11%,-0.7

Continued:
SMILES,ClpP mod,TRPML1 ag,TRPML1 blocker,gsp antagonist,gsp agonist,Menin MLL FP FL
CNC[C@H](CC1CCCCC1)NC[C@H](CO)NCCc1cccc(C(F)(F)F)c1,-5.1%,-0.5,-3,1%,x,-5.8
CC(=O)N1CCC(CCCC2CCN(C(C)=O)CC2)CC1,1.2%,-0.1,-16,5%,-9%,x
C[C@H](CO)N1C[C@H](C)[C@@H](CN(C)Cc2ccccc2)OCCCC[C@H](C)Oc2ccc(N(C)C)cc2C1=O,-1.1%,0.0,42,x,0%,x
CCOC(=O)c1ccccc1NC(=O)CSc1ncc(CO)n1Cc1ccc(C)cc1,-1.4%,-0.7,14,x,x,x
CCOc1cc(/C=C/C(=O)O)ccc1OCCOc1ccccc1,-9.0%,-0.6,10,-30%,-27%[15.4 µM],x
O=C1NCCO1,-2.8%,0.5,54,7%,x,x
CCc1ccccc1N1C(=O)N(CC(=O)c2ccc(OC)cc2)c2ccccc2S1(=O)=O,-0.2%,1.8,0,x,x,x
Cc1ccc(S(=O)(=O)NNC(=O)c2ccccc2-n2cccc2)cc1,-1.6%,-0.7,-9,1%,-4%,x
COc1cc(CNCCc2ccccc2)ccc1OCC(N)=O,-1.8%,-0.1,14,13%,-19%,3.4
COc1ccc(/C=N/N2CCN(C)CC2)c(OC)c1OC,x,-0.5,7,19%,0%[15.4 µM],-3.0
COc1cccc(CNC(=O)c2cc(C3CC3)nc3c2cnn3C(C)C)c1,3.6%,2.6,-4,-6%,35%,x
CCCCOc1ccc(C(=O)N/C(=C\c2cccc([N+](=O)[O-])c2)C(=O)OCCC)cc1,1.0%,0.4,2,4%,9%,4.4

Next section
SMILES,ClpP mod,TRPML1 ag,TRPML1 blocker,gsp antagonist,gsp agonist,Menin MLL FP FL
COc1cc(/C=N/NC(=O)c2ccc(CSc3nncn3C)cc2)ccc1OCC(=O)N1CC(C)OC(C)C1 (stereo not drawn),-4.5%,-0.4,-1,2%,4%,-5.9
O=C1CC(NNc2ccccc2)C(=O)N1c1ccc(N2CCCCC2)cc1 (stereo not drawn),x,-0.4,-3,x,-1%[15.4 µM],0.5
CN(C)/C(=N\S(=O)(=O)c1ccc(F)cc1)c1ccccc1,-0.1%,0.8,-3,11%,40%,-14
Oc1[nH]c2ccccc2c1C1=NCCCC1,-0.6%,-0.7,-1,-4%,-16%,-1.6
Cc1ccc(NC(=O)/C(C#N)=C/c2cn(CC(=O)NCc3ccco3)c3ccccc23)cc1C,0.4%,0.3,-9,13%,7%[15.4 µM],u
O=C(Nc1ccccc1)c1cccc(S(=O)(=O)N2CCCCC2)c1,1.4%,-0.4,-7,10%,9%,-0.2

Screening data (PubChem)
